VACV mCherry inh: qHTS for Stage-Specific Inhibitors of Vaccinia Orthopoxvirus: mCherry Reporter Primary qHTS; 310,000 compounds, 0.63% hits; AID 720579, 2013; Vaccinia virus mCherry reporter infection, fluorescence; about a quarter of the inactives have no number; Potency, µM (top dose mostly 36.5 µM), inactives show at the highest dose activity change, negative = inhibition, hits mostly inhibitors; active = well fitted inhibition curve with a large enough effect; inconclusive = small, poorly fitted or top-dose-only effect; inactive = no such curve, though single readings can be large or run the other way; tested in A549 cells; also: nearly all actives have a fitted effect of over 35% in size; inactives centre near -10
VACV Venus inh: qHTS for Stage-Specific Inhibitors of Vaccinia Orthopoxvirus: Venus Reporter Primary qHTS | Vaccinia virus Venus reporter expression, fluorescence | Potency, µM (doses to about 36.5 µM), for the others: at the highest dose activity change, negative = inhibition, actives largely listed as inhibitors | 330,000 compounds, 0.46% hits | AID 720580, 2013; active means well fitted inhibition curve with a large enough effect; inconclusive means small, poorly fitted or top-dose-only effect; inactive means no such curve, though single readings can be large or run the other way; tested in A549 cells; also: nearly all actives have a fitted effect of over 30% in size; inactives centre near -10
* = called active by the depositor; & = joins results of further samples; [ ] = remark or other dose. % is scaled to controls: 0 for no effect and ±100 for the full control effect; potency is read from the fitted curve at half-maximal effect. Random draw from the library, and some 0.87% of all compounds hit somewhere here.

`CCCC(=O)Nc1ccc(Cl)c(NC(=S)NC(=O)c2ccco2)c1` gave VACV mCherry inh inactive and VACV Venus inh -19%.
`Cc1scc(C(=O)N/N=C/c2ccsc2)c1C` gave VACV mCherry inh -5% and VACV Venus inh -14%.
`Cc1ccc(C#N)c(SCC(=O)Nc2nccs2)n1` gave VACV mCherry inh inactive and VACV Venus inh 4%.
`COc1ccc(S(=O)(=O)N2CCC(C(=O)NC3CCCCC3)CC2)cc1C` gave VACV mCherry inh -17% and VACV Venus inh -8%.
Screening COc1ccccc1NC(=O)C1CC(=O)OC1c1ccccc1 (configuration not stated) returned VACV Venus inh -11%.
For CC1(c2ccccc2)NC(=O)N(CC(=O)N2CC(=O)Nc3ccccc32)C1=O (configuration not stated) the results were VACV mCherry inh inactive and VACV Venus inh -7%.
Cc1ccccc1-c1nc(CN2CCC(C(=O)N3CCN(c4ccccn4)CC3)CC2)c(C)o1 was read as VACV mCherry inh -26% and VACV Venus inh -16%.
`C/C(=N\NC(=O)c1cc(C)[nH]n1)c1cccs1` gave VACV mCherry inh -11% and VACV Venus inh -4%.
Screening CC(C)C[C@H](NC(=O)[C@H](Cc1ccccc1)NC(=O)CNC(=O)[C@H](C)NC(=O)[C@@H](N)Cc1ccc(O)cc1)C(=O)O returned VACV mCherry inh -13%[3.33 µM] and VACV Venus inh -9%[3.33 µM].
For COc1ccc(OC)c([C@@H]2Nc3ccc(C(=O)O)cc3[C@@H]3C=CC[C@@H]32)c1 the results were VACV mCherry inh 11% and VACV Venus inh -14%.
`Cc1c(C(=O)/C=C/N(C)C)nnn1-c1ccc(Cl)cc1C#N` gave VACV mCherry inh -8% and VACV Venus inh -9%.
For COc1ccc(CN2CCCC(C(=O)c3cccc(C(F)(F)F)c3)C2)cc1O (configuration not stated) the results were VACV mCherry inh -14% and VACV Venus inh -19%.
`CC1(C)CC(=O)c2cc(OCC(=O)N3CCN(c4ccccc4F)CC3)ccc2O1` gave VACV mCherry inh -29% and VACV Venus inh -25%.
For O=C(C1COc2ccccc2O1)N1CCN(c2nc3ccccc3s2)CC1 (configuration not stated) the results were VACV mCherry inh -16% and VACV Venus inh -9%.
Screening S=C(Nc1ccccc1Cl)N1CCN(Cc2ccccc2)CC1 returned VACV mCherry inh -22% and VACV Venus inh -13%.
For Cc1ccc(NC(=S)NC2CCCC2)cc1 the results were VACV Venus inh -6%.
`c1ccc2c(c1)ccc1ccccc12` gave VACV mCherry inh inactive and VACV Venus inh -9%.
Screening O=C(CN1CCN(S(=O)(=O)c2ccccc2)CC1)NCCc1ccccc1 returned VACV mCherry inh 4% and VACV Venus inh 2%.
For CCCCc1nc2sc3c(=O)[nH]cnc3c2c2c1CCCC2 the results were VACV mCherry inh inactive and VACV Venus inh -13%.
For Cc1ccc(NC(=O)N[C@@H](CC(C)C)C(=O)O)c(C)c1 the results were VACV mCherry inh inactive and VACV Venus inh -7%.
Screening COc1ccc(NC(=O)N(C)C[C@H]2Oc3ccc(NC(=O)Nc4c(C)noc4C)cc3C(=O)N([C@H](C)CO)C[C@H]2C)cc1 returned VACV mCherry inh -29% and VACV Venus inh -8%.
Screening C=CC1CN2CCC1CC2C(OC(C)=O)c1ccnc2ccc(OC)cc12 (configuration not stated) returned VACV mCherry inh -10% and VACV Venus inh -10%.
`CCOc1ccccc1OCCOc1ccccc1CC` gave VACV Venus inh inconclusive.
Screening COc1ccc(NC(=O)CN(C)C(=O)c2cccc(S(=O)(=O)Nc3ccc(OC)cc3)c2)cc1 returned VACV mCherry inh inactive and VACV Venus inh -16%.
For CC(Sc1nncn1C)C(=O)Nc1ccc(S(N)(=O)=O)cc1 (configuration not stated) the results were VACV mCherry inh -9% and VACV Venus inh -4%.
For O=C(Nc1ccc(C(=O)O)cc1)/C(=C\C=C\c1ccccc1)NC(=O)c1ccccc1Br the results were VACV mCherry inh -13% and VACV Venus inh -9%.
For O=C(NCCS(=O)(=O)N1CCN(c2ccccc2F)CC1)C1CC(=O)N(c2ccc(F)cc2)C1 (configuration not stated) the results were VACV mCherry inh -6% and VACV Venus inh -7%.
CC(=O)Nc1ccc2c(CSc3nncs3)cc(=O)oc2c1 was read as VACV mCherry inh inactive and VACV Venus inh -11%.
Cc1ccc(CN2CCCn3nc(C(=O)NCc4ccccc4Cl)cc3C2=O)cc1 was read as VACV mCherry inh -24% and VACV Venus inh -9%.
For Nc1nc(NCc2ccccc2)c2[nH]cnc2n1 the results were VACV mCherry inh -14%&-6% and VACV Venus inh -11%&-19%.
For CNc1nc(C)cc(C)c1S(=O)(=O)c1ccc(C)cc1 the results were VACV Venus inh -26%.
Screening CC1CCN(c2ncnc3c2cnn3Cc2ccc(Cl)cc2)CC1 returned VACV mCherry inh inconclusive and VACV Venus inh -29%.
For Cc1ccc(N2CC(C(=O)NCC3CCCO3)CC2=O)cc1Cl (configuration not stated) the results were VACV Venus inh -9%.
O=C(c1cc(C2CC2)on1)N1CCCC(N2CCN(c3cccc(C(F)(F)F)c3)CC2)C1 (configuration not stated) was read as VACV mCherry inh inconclusive and VACV Venus inh -30%.
For O=C(Cc1ccc(Nc2nc3ccc(Br)cc3[nH]2)cc1)NCCc1cccs1 the results were VACV mCherry inh -20% and VACV Venus inh inconclusive.
N=C(N)SCc1ccccc1Cl was read as VACV mCherry inh inactive and VACV Venus inh -6%.
For CCCNC(=O)Cn1cnc2sc(C(=O)N3CCN(CCC)CC3)c(C)c2c1=O the results were VACV Venus inh 1%.
Screening COc1ccc(CC(=O)OCC(=O)Nc2cc(Cl)ccc2C)cc1 returned VACV mCherry inh -18% and VACV Venus inh 19%.
`CCOC(=O)C1=C[C@@H](CC)N(S(=O)(=O)c2ccc(C)cc2)[C@H]1c1cccc(Cl)c1` gave VACV mCherry inh 2% and VACV Venus inh 5%.
`Cc1cc(C)n2c(SCC(=O)Nc3ncc(C(F)(F)F)cc3Cl)nnc2n1` gave VACV mCherry inh -17% and VACV Venus inh -10%.
`CCOc1cccc(C(=O)Nc2ccccc2C(=O)N2CCOCC2)c1` gave VACV mCherry inh inactive and VACV Venus inh -11%.
O=C(c1ccccc1SCc1ccccc1)N1CCOCC1 was read as VACV mCherry inh -18% and VACV Venus inh -3%.
Screening Cc1ccc(S(=O)(=O)N(C)c2ccc(OC(C)C(=O)N(C)c3ccccc3)cc2)cc1 (configuration not stated) returned VACV mCherry inh -21% and VACV Venus inh -23%.
`O=C(NCCN1CCN(S(=O)(=O)c2ccc(F)cc2)CC1)C(=O)NCc1ccccc1` gave VACV mCherry inh -14% and VACV Venus inh 14%.
`O=C(NNc1ccccc1)c1ccccc1` gave VACV mCherry inh -10% and VACV Venus inh -17%.
CC(C)C(OC(=O)c1ccco1)C(=O)NCc1ccccc1 (configuration not stated) was read as VACV mCherry inh -15% and VACV Venus inh 3%.
For COc1ccc(C(=O)c2sc3nc(-c4ccccc4)ccc3c2N)cc1OC the results were VACV mCherry inh inconclusive and VACV Venus inh -22%.
O=C(COC(=O)CCC(=O)c1cccs1)NCc1ccc(Cl)cc1 was read as VACV mCherry inh -18% and VACV Venus inh -11%.
`CCOC(=O)c1c(C)[nH]c(C)c1C(=O)CSc1nnc(N)s1` gave VACV mCherry inh -8% and VACV Venus inh -14%.
Screening N#Cc1cc2ccncc2c2ccccc12 returned VACV mCherry inh inactive and VACV Venus inh -8%.
`CC(C)N(C(=O)CSc1nnnn1C1CCCC1)C(C)C` gave VACV mCherry inh -10% and VACV Venus inh -11%.
C=C(C)Cn1c(CNC(C)=O)nc2ccccc21 was read as VACV mCherry inh -11% and VACV Venus inh -2%.
O=C(CNC(=O)c1ccc(Br)cc1)NCC(=O)OCC(=O)c1ccc([N+](=O)[O-])cc1 was read as VACV mCherry inh -11% and VACV Venus inh -17%.
For CCOC1=C2[C@@H](CN(S(=O)(=O)c3ccc(C)cc3)[C@H]2c2ccc(Cl)cc2)[C@H]2C(=O)N(c3ccccc3)C(=O)[C@H]2C1 the results were VACV mCherry inh 5% and VACV Venus inh -7%.
COc1ccccc1NC(=O)COC(=O)Cc1ccc(S(=O)(=O)N2CCCCC2)s1 was read as VACV mCherry inh inactive and VACV Venus inh -9%.
Cc1ccccc1NS(=O)(=O)c1ccc(C(=O)N2CCCC(C(F)(F)F)C2)cc1 (configuration not stated) was read as VACV mCherry inh -1% and VACV Venus inh -18%.
For Cc1c(-n2c(=O)n(Cc3ccccc3)c(=O)c3[nH]cnc32)cccc1S(C)=O (configuration not stated) the results were VACV mCherry inh -5% and VACV Venus inh -4%.
For O=C(c1ccc(S(=O)(=O)N2CCCCC2)cc1)c1nnc(-c2ccc(Cl)cc2)o1 the results were VACV mCherry inh -6% and VACV Venus inh -9%.
For CC(C)(O)[C@H](O)COc1c2ccoc2cc2oc(=O)ccc12 the results were VACV mCherry inh inactive and VACV Venus inh -4%.
Screening Cc1ccccc1Cn1c(SCc2ccc(C(=O)NC3CCCC3)cc2)nc2ccncc21 returned VACV mCherry inh -30% and VACV Venus inh -17%.
Screening O=C1CN=C(Nc2ccc(Cl)cc2)N1c1ccccc1 returned VACV Venus inh inconclusive.
`COc1ccc2c(CCN)c[nH]c2c1` gave VACV mCherry inh -15% and VACV Venus inh -8%&-5%.
Screening O=C(O)c1cccc(NC(=O)c2ccc(N3C(=O)c4ccc(C(=O)Nc5cccc(C(=O)O)c5)cc4C3=O)cc2)c1 returned VACV mCherry inh -8% and VACV Venus inh 0%.
CCc1ccc(NC(=O)CSc2ccc3nc(-c4ccc(OC)cc4)cn3n2)cc1 was read as VACV mCherry inh -4% and VACV Venus inh -11%.
For COC(=O)c1ccc(NC(=O)Cn2nnc(-c3cccs3)n2)cc1 the results were VACV mCherry inh inactive and VACV Venus inh -8%.
`Nc1nonc1C(=O)NCCNC(=O)c1cccc(Cl)c1` gave VACV mCherry inh -21% and VACV Venus inh -14%.
Screening COc1ccc(/C=C2\C(=O)NC(=S)N(C)C2=O)cc1C returned VACV mCherry inh -3% and VACV Venus inh -16%.
`CCn1ncc(CNC(=O)C2(C)CC2(Cl)Cl)c1C` (configuration not stated) gave VACV mCherry inh -18% and VACV Venus inh 6%.
`CCOc1ccc(C(=O)NCc2ccc3c(c2)CCN3C(=O)c2ccc(Cl)cc2)cc1` gave VACV mCherry inh inactive and VACV Venus inh -11%.
`Cc1c(C)n(C)c2ccc(C(=O)N3CCN(c4ccccc4)CC3)cc12` gave VACV mCherry inh -9% and VACV Venus inh -1%.
`COC(=O)C1OC2(OC1C(=O)OC)c1ccccc1-c1ccccc12` (configuration not stated) gave VACV Venus inh 20%.
CCc1ccc2occ(CC(=O)Nc3c(C(=O)Nc4ccc(C)cc4)oc4ccccc34)c2c1 was read as VACV mCherry inh -14% and VACV Venus inh -7%.
For CCc1ccc(-n2c(=O)c3c4c(sc3n(CC(=O)c3ccc(Cl)cc3)c2=O)CCC4)cc1 the results were VACV mCherry inh -26% and VACV Venus inh -28%.
CCOc1ccccc1N1C(=O)c2cccnc2C1=O was read as VACV mCherry inh inactive and VACV Venus inh -7%.
Cc1cc(=O)oc(C)c1C(=O)Nc1ccc(Cl)cn1 was read as VACV mCherry inh -9% and VACV Venus inh -8%.
COc1ccc(C(CNC(=O)c2cccc(S(=O)(=O)Nc3ccccc3OC)c2)N2CCCC2)cc1 (configuration not stated) was read as VACV mCherry inh -1% and VACV Venus inh -23%.
c1ccc(Cc2nc3ccccc3[nH]2)cc1 was read as VACV mCherry inh inactive and VACV Venus inh -11%.
`CC1CN(C(=S)Nc2ccccc2)C(C)CN1C=O` (configuration not stated) gave VACV mCherry inh inactive and VACV Venus inh 2%.
COc1ccc(CC(=O)Nc2nn(C)c3nc4c(C)cccc4cc23)cc1 was read as VACV mCherry inh inactive and VACV Venus inh 4%.
Screening O=C(OCC(=O)N1CCc2ccccc2C1)c1ccc(OC(F)F)cc1 returned VACV mCherry inh -18% and VACV Venus inh -15%.

By substructure, those above with an aryl thioether with sulfur outside any ring (9)
`Cc1ccc(C#N)c(SCC(=O)Nc2nccs2)n1` gave VACV mCherry inh inactive and VACV Venus inh 4%.
For CC(Sc1nncn1C)C(=O)Nc1ccc(S(N)(=O)=O)cc1 (configuration not stated) the results were VACV mCherry inh -9% and VACV Venus inh -4%.
CC(=O)Nc1ccc2c(CSc3nncs3)cc(=O)oc2c1 was read as VACV mCherry inh inactive and VACV Venus inh -11%.
`Cc1cc(C)n2c(SCC(=O)Nc3ncc(C(F)(F)F)cc3Cl)nnc2n1` gave VACV mCherry inh -17% and VACV Venus inh -10%.
O=C(c1ccccc1SCc1ccccc1)N1CCOCC1 was read as VACV mCherry inh -18% and VACV Venus inh -3%.
`CCOC(=O)c1c(C)[nH]c(C)c1C(=O)CSc1nnc(N)s1` gave VACV mCherry inh -8% and VACV Venus inh -14%.
`CC(C)N(C(=O)CSc1nnnn1C1CCCC1)C(C)C` gave VACV mCherry inh -10% and VACV Venus inh -11%.
Screening Cc1ccccc1Cn1c(SCc2ccc(C(=O)NC3CCCC3)cc2)nc2ccncc21 returned VACV mCherry inh -30% and VACV Venus inh -17%.
CCc1ccc(NC(=O)CSc2ccc3nc(-c4ccc(OC)cc4)cn3n2)cc1 was read as VACV mCherry inh -4% and VACV Venus inh -11%.
